Screening results (PubChem BioAssay)
PINK1 expr mod: changes PINK1 expression; PINK1 immunofluorescence, high-content cytometry, 24 h; Potency, µM (highest dose often 76.6 µM), without a hit: at the top dose activation (PINK1 increase), actives largely listed as activators; actives 0.2% (n = 410,000); AID 624263; active = well fitted activation curve with a large enough effect; inconclusive = small, poorly fitted or top-dose-only effect; inactive = flat fitted curve, though single readings scatter; cell line not stated here;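 also: potency is read from the fitted curve at half-maximal effect; % of control where 0% means no effect; nearly all actives have a fitted effect of over 65% in size; a mitochondrial uncoupler was the plate control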
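Readout is PINK1 immunofluorescence, quantified alongside mitochondrial, cell and nuclear markers by laser-scanning microplate cytometry. Cells from a stable line were exposed to compound titrations (5 concentrations) for 24 hours, with CCCP controls.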
D2 agonist: human D2 receptor agonism in beta-arrestin assay; P14416; DiscoveRx PathHunter D2 beta-arrestin, luminescence, 90 min; 100% = 57 uM dopamine signal; activation, % (test concentration not listed); actives 0.084% (n = 360,000); AID 624465; in the data active = activation above about 40%; inconclusive = about 15% to 40%; inactive = below about 15%; also: compound concentration not given in the record; the text of the record calls up to 30% inactive
Target sequence (P14416 whole entry, looked up): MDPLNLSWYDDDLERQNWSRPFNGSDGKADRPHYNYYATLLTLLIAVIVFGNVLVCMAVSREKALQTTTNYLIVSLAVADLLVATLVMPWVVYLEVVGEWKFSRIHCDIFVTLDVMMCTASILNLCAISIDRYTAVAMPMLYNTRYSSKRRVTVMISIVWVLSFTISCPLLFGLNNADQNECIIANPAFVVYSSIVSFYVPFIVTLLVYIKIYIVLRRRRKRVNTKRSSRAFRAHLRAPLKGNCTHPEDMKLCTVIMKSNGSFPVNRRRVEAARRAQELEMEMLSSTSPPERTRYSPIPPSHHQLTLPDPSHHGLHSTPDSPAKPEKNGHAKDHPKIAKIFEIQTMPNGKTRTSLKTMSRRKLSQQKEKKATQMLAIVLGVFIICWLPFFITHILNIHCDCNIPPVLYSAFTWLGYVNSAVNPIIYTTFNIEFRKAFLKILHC
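DiscoveRx PathHunter D2 beta-arrestin cells (2,100/well) attached overnight, then compound-stimulated 90 min at 37 C in HBSS/10 mM HEPES/0.1% Tween-20 buffer; beta-galactosidase complementation read by luminescence after 1 h at ambient temperature. Dopamine 57 uM final (EC100) as control.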
TRPML1 agonist: activates the human TRPML1 channel; AID 624414; actives 0.12% (n = 410,000); activation, % (test concentration not listed); TRPML1-expressing cells, Ca2+ dye fluorescence, FDSS; host cell line not named in the record; reference of the full effect not given here; in the data active = activation above about 50%; inconclusive = about 30% to 50%; inactive = below about 30%; also: 0% is about no effect; the text of the record puts the active cut at 80%
Target sequence (Q9GZU1 whole entry, looked up): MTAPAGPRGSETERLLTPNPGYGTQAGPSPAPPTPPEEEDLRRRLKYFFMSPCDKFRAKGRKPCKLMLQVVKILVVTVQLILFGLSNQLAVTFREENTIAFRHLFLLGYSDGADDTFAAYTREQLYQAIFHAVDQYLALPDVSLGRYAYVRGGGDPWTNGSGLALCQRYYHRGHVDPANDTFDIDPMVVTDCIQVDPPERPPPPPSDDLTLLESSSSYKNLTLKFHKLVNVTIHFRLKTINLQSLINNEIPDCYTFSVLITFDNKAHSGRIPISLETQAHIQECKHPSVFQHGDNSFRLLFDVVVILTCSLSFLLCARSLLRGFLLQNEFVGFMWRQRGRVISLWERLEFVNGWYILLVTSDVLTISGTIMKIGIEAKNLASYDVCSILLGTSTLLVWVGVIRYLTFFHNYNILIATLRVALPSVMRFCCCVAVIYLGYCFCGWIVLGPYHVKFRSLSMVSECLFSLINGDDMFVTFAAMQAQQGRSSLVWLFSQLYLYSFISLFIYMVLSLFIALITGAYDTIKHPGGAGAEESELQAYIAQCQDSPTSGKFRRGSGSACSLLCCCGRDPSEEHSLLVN
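Cells: TRPML1-DL, 1X Tet inducer, ~16 h at 37 degrees C/5% CO2. Dye: ABD Ca8 no-wash + quencher, 45-90 min RT. Read: 10 s baseline, compound add, 110 s agonist phase; 54-4 EC80 (4uM final), 110 s antagonist phase.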
TRPML1 inh: inhibitors of human TRPML1 channel | TRPML1-inducible cells, Ca2+ dye fluorescence, FDSS; active compounds read low; inhibition of EC80 agonist-evoked calcium signal | activity change, negative = inhibition, % (no concentration beside the values) | Q9GZU1 | actives 0.02% (n = 390,000); in the data active means activity change below about -50%; inconclusive means about -30% to -50%; inactive means above about -30%;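 also: stimulus is agonist 54-4 at its EC80 concentration; % is scaled to controls: 0 for no effect and ±100 for the full control effect; compound concentration not given in the record; the text of the record puts the active cut at -80%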
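Tet-induced TRPML1-DL cells loaded with Ca8 no-wash calcium dye were read kinetically on FDSS. Compound addition was followed by EC80 agonist 54-4 (4 uM final); inhibition was read over 110 s.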
CtBP-E1A blk: inhibitors of CtBP/E1A interaction. activity change, % (concentration not given with the values). AID 651724. AlphaScreen GST-E1A/His-CtBP binding, 1536-well; active compounds read low; control for the full effect not named in the record. actives 0.49% (n = 340,000); in the data active means activity change below about -65%; inconclusive means about -30% to -65%; inactive means above about -30%; also: % is scaled to controls: 0 for no effect and ±100 for the full control effect
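GST-E1A and His-tagged CtBP (125 nM each as 5X stock) were preincubated with pin-transferred compound for 2 h at 37 °C in the dark, then glutathione donor and nickel acceptor beads were added for 1 h before AlphaScreen reading.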
Six1-Eya2 blk: inhibitors of human Six1/Eya2 interaction; AlphaScreen GST-Six1/His-Eya2 binding, biochemical; active compounds read low; control for the full effect not named in the record; activity change, % (no concentration beside the values); actives 0.56% (n = 360,000); in the data active = activity change below about -65%; inconclusive = about -30% to -65%; inactive = above about -30%; also: % is scaled to controls: 0 for no effect and ±100 for the full control effect
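AlphaScreen with GST-Six1 and His-Eya2 (5X mix: 250 nM and 500 nM), glutathione donor and nickel acceptor beads; buffer 50 mM Tris pH 8.0, 300 mM NaCl, 1 mM TCEP; 1 h at 37 C in the dark.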
Active calls of the source: *; ? = inconclusive; / = not tested or not shown; & = joins results of further samples; [ ] = dose if it differs, or a comment.

SMILES	PINK1 expr mod	D2 agonist	TRPML1 agonist	TRPML1 inh	CtBP-E1A blk	Six1-Eya2 blk
CCc1ccccc1NC(=O)CSc1nc(-c2ccccc2OC)nc2c1Cc1c(CO)cnc(C)c1O2	1.2%	/	-0.4	4.0	/	/
CN=c1scc(-c2cccs2)n1/N=C/c1ccc(O)c(O)c1O	1.9%	181.8*	0.5	-10.5	-88.3*	-77.0*
CCOC(=O)C1CCN(c2cc(=O)n(C3CCCCC3)c(=O)[nH]2)CC1	0.6%	0.6	-0.6	21.6	4.6	0.1
CCOC(=O)Cc1ccc(NCc2ccc(Cl)cc2)cc1	3.4%	4.2	-0.2	16.3	-9.3	-8.0
COc1ccc2sc(-c3ccccc3OC)c(C#CCCO)c2c1	3.5%	-2.8	1.0	-11.8	3.6	0.8
COc1ccccc1N(C(=O)c1snc(C(N)=O)c1N)C(C(=O)NCc1ccccc1)c1ccc(O)cc1 (stereo not drawn)	-0.7%	-3.0	0.6	-2.3	-0.1	8.8
O=C(NCc1ccc(OC(F)(F)F)cc1)C1CCC(=O)N(C2CC2)C1 (stereo not drawn)	3.2%	-3.5	1.0	34.9	-5.0	2.4
Nc1nc(Sc2ncccc2[N+](=O)[O-])n[nH]1	0.3%	0.0	2.2	11.4	9.2	10.1
Cc1ccc(NC(=O)c2ccc3snnc3c2)cc1Cl	4.1%	/	2.1	23.1	/	/
CCc1ccc(CNC(=O)c2cc3ccccn3n2)cc1	0.6%	/	0.4	25.5	/	/
NC(=O)CSc1nnc(Cn2cnc3ccccc32)o1	2.7%	-7.9	0.4	8.9	-3.4	2.5
COc1cc(NC(=O)CSc2nc3c(c(=O)n(C)c(=O)n3C)n2C)cc(OC)c1	1.8%	-2.7	-0.3	0.0	-22.3	-3.7
O=C(O)c1ccc(COc2ccc3ccccc3c2/C=C2/NC(=O)N(c3ccccc3)C2=O)cc1	0.5%[38.3 µM]	-4.9	-0.3	15.2	-9.9	-6.2
O=C(COC(=O)C12CC3CC(CC(C3)C1)C2)NCc1ccco1	-0.7%&-0.4%	2.1	-0.6&0.8	-4.4&19.7	2.1	-14.2
Cc1ccc(CNC(=O)CSc2nc3c(sc4ccccc43)c(=O)n2CCCOC(C)C)cc1	-0.7%	/	-0.4	4.3	/	/
COc1cccc2sc(N3CCN(C(=O)c4ccco4)CC3)nc12	1.0%	1.4	-1.0	6.0	-1.7	-16.4
O=C(COc1ccc(Br)cc1Br)NNC(=O)c1cccs1	2.0%	-1.1	0.0	-14.7	0.0	-1.1
COc1ccccc1NCCC(=O)OCC(=O)Nc1ccccc1F	6.2%	-4.9	0.8	13.1	5.8	-9.4
NC(=O)CC(NC(=O)c1cccc(Br)c1)c1ccc(NC2CCN(Cc3ccccc3)CC2)c([N+](=O)[O-])c1 (stereo not drawn)	-0.3%	-5.6	-0.4	17.9	-1.8	36.6
COc1cc(OC)c(OC)cc1CNC(=O)c1cc(S(=O)(=O)N2CCOCC2)ccc1F	2.0%	-2.3	1.0	-7.4	23.9	10.1

Compound profiles (already shown):
Nc1nc(Sc2ncccc2[N+](=O)[O-])n[nH]1 in the list: PINK1 expr mod = 0.3%; D2 agonist = 0.0; TRPML1 agonist = 2.2; TRPML1 inh = 11.4; CtBP-E1A blk = 9.2; Six1-Eya2 blk = 10.1
COc1cc(NC(=O)CSc2nc3c(c(=O)n(C)c(=O)n3C)n2C)cc(OC)c1 in the list: PINK1 expr mod = 1.8%; D2 agonist = -2.7; TRPML1 agonist = -0.3; TRPML1 inh = 0.0; CtBP-E1A blk = -22.3; Six1-Eya2 blk = -3.7

Going on with the list:
SMILES	PINK1 expr mod	D2 agonist	TRPML1 agonist	TRPML1 inh	CtBP-E1A blk	Six1-Eya2 blk
CCn1c(SCC(=O)Nc2nc(C)c(C(=O)OC)s2)nnc1C(C)C	-0.9%	-7.1	-0.7	6.0	-0.9	1.9
O=C(Oc1cccc(N2C(=O)CCC2=O)c1)C1CC(=O)N(c2ccc(Br)cc2)C1 (stereo not drawn)	/	4.0	0.5	8.8	4.6	0.7
CCC(=O)Nc1cc(C(=O)O)ccc1S(=O)(=O)c1ccc(C)cc1	-0.6%	-3.0	0.0	-1.9	9.8	-12.2
CC(=NNC(=S)N1CCN(c2ccccn2)CC1)c1nccs1	0.6%	-1.2	1.6	1.5	-93.6*	-91.1*
COc1ccc(S(=O)(=O)N2CCOCC2)cc1C(=O)Nc1ccc(N2CCCCCC2)cc1	1.7%	10.3	1.0	-7.4	?	?
Cc1cc(N2CCCC2=O)cc(C)c1S(N)(=O)=O	9.0%[38.3 µM]	-1.6	-0.2	11.1	-30.0	-0.2
O=C1c2ccccc2C2(c3ccc(F)cc3)NCCN12 (stereo not drawn)	5.4%	-0.6	0.8	7.9	6.9	15.8
C#CCOCCOCCOCCNc1nc(N2CCN(C(=O)CCCCCCCCCCNC(=O)[C@@H](CCC(=O)O)n3cc(CCCCCN)nn3)CC2)nc(N2CCN(C(=O)CCCCCCCCCCNC(=O)[C@H](CO)n3cc(CCCCCN)nn3)CC2)n1	6.9%	-7.8	0.6	-17.3	-0.6	-3.7
O=C(/C=C/c1ccccc1[N+](=O)[O-])N1CCCCC1	-1.5%	-2.5	1.8	-14.2	11.3	16.0
Nc1nnc(-c2ccccc2F)s1	-0.1%	-2.2	0.2	5.7	0.8	3.2
CCN(CC)C(=O)COC(=O)c1cc(-c2ccc(OC)cc2)nc2ccccc12	4.0%[38.3 µM]	-2.7	2.5	5.0	2.0	23.7
COc1ccc(-n2nc(C(=O)NCC(=O)N3CCCC(C)C3)c3ccccc3c2=O)cc1 (stereo not drawn)	0.8%	2.4	-0.6	-5.0	0.0	-2.1
Cc1ccc(C(=O)CC(SCC(=O)O)c2ccc([N+](=O)[O-])cc2)cc1 (stereo not drawn)	3.8%	-0.8	1.5	-17.0	/	18.6
Cc1cc(F)cc(-c2cc(C(=O)NCC3CCCCC3)[nH]n2)c1	3.6%	1.6	-0.5	/	4.7	2.0
Cc1ccc(C(=O)O)cc1-n1c(C)ccc1-c1ccccc1	-0.8%	/	-0.9	15.3	/	/
CCOC(=O)c1ccccc1NC(=O)CSc1nc2ncccc2[nH]1	1.8%	/	0.3	-3.8	/	/
O=C(Nc1ccccc1)c1ccccc1NC(=O)C(F)(F)F	5.2%[38.3 µM]	-2.0	0.7	-10.7	9.8	3.5
Cc1c([N+](=O)[O-])cc(C(=O)NCc2ccc(F)cc2)cc1[N+](=O)[O-]	-0.6%	7.0	1.6	-11.3	-5.4	-8.9
CCCNc1ccc(C(=O)OCC)cc1[N+](=O)[O-]	2.5%	-3.0	-0.9	-2.8	6.2	-19.7
COc1ccc(C2=Nc3ccccc3C2(O)CCN2C(=O)c3ccccc3C2=O)cc1 (stereo not drawn)	0.0%	0.5	-0.2	-15.0	-1.8	2.4
O=C(Cn1c(SCC(=O)Nc2ccc(F)cc2)nc2ccccc21)NCc1ccc(F)cc1	8.0%	/	-0.2	-1.1	/	/
O=C(COC(=O)C1=NN(c2ccccc2)C(=O)CC1)NCc1ccccc1Cl	1.9%	-2.9	1.5	-9.4	6.8	-3.7
C#CCOCCOCCOCCNc1nc(N2CCN(C(=O)CCCCCCCCCCNC(=O)[C@H]([C@@H](C)CC)n3cc(CCCCCN)nn3)CC2)nc(N2CCN(C(=O)CCCCCCCCCCNC(=O)[C@H](CCCCN)n3cc(CCCC(=O)O)nn3)CC2)n1	4.2%	1.7	0.5	-19.1	-7.9	4.0
CC1=C(C(=O)OCC(C)C)C(c2cccs2)NC(=S)N1 (stereo not drawn)	6.3%	-2.0	1.2	-18.5	1.2	-0.7
Cc1cccc(OCC(=O)Nc2ccccc2F)c1	-2.6%	1.2	1.4	-18.2	13.0	6.4
CN(CCN1CCOCC1)C(=O)CC1C(=O)NCCN1Cc1ccccc1F (stereo not drawn)	0.5%	-2.5	-0.1	-5.8	-0.8	14.7
COc1cc2c(cc1O)C(SC)=NC(C)(C)C2	1.6%	1.4	-0.5	5.7	-7.8	3.1
O=C(CCCN1CCc2[nH]c3ccc(F)cc3c2C1)c1ccc(F)cc1	1.5%	-5.3	0.6	7.7	-22.3	0.5
C[C@H](NS(=O)(=O)c1ccc(Cl)cc1)C(=O)OCC(=O)NC(=O)Nc1ccc2c(c1)OCCO2	3.0%	0.4	0.2	5.5	-25.2	-8.6
COCC(=O)Nc1nc2n(n1)C(c1ccc(OC)cc1)CC(c1ccc(OC)cc1)N2 (stereo not drawn)	2.0%[38.3 µM]	-2.3	-0.5	-3.9	2.7	4.1
CC(=O)Nc1ccc(NC(=O)C/C(C)=N/NC(=O)c2cccc3ccccc23)cc1	4.2%	4.1	1.6	-5.5	6.6	2.8
COc1ccc(N2CCN(C(=O)c3ccc(CS(=O)Cc4ccc(Cl)cc4)o3)CC2)cc1 (stereo not drawn)	0.7%	-0.1	-1.2	-14.0	-3.7	-5.1
Fc1ccccc1C1CCN(Cc2nc(COc3ccccc3)no2)C1 (stereo not drawn)	0.3%	-2.3	0.0	-0.4	/	-3.8
CCC(Oc1ccccc1)C(=O)Nc1ccc(OCc2cc(=O)n3ccc(C)cc3n2)cc1 (stereo not drawn)	0.3%	/	0.0	-11.5	/	/
c1cncc(-c2nc(NCCCn3ccnc3)c3ccccc3n2)c1	0.0%	-4.3	-0.3	17.1	-11.0	-72.7*
COc1ccc(CCNC(=O)COC(=O)c2cc(S(=O)(=O)N3CCOCC3)ccc2C)cc1OC	-3.0%	-2.0	-0.2	10.6	8.0	-3.1
CN(CC(=O)Nc1ccccc1Br)C(=O)CNC(=O)C1CCCCC1	-0.5%	-4.3	-0.5	-6.9	/	2.6
CC1=C(C)CS(=O)N(S(=O)(=O)c2ccccc2)C1 (stereo not drawn)	-15.5%[38.3 µM]	-2.1	5.8	16.0	10.2	4.2
COC(=O)CCC(=O)Nc1ccc(Br)cc1	0.2%	-4.5	2.5	52.7	0.0	15.7
O=[N+]([O-])c1cc(S(=O)(=O)CCCN2CCOCC2)ccc1F	7.7%	-1.1	0.0	2.6	/	-4.4
Cc1cccc(-n2c(SCC(=O)Nc3ccc(C)c(C)c3)nc3n[nH]c(C)c3c2=N)c1	3.6%	/	3.8	8.0	/	/
O=C(Nc1ccc(S(=O)(=O)N2CCCC2)cc1)c1ccc2c(=O)n3c(nc2c1)CCCCC3	3.8%	-4.8	0.9	22.5	-10.1	0.0
CNC(=O)c1[nH]cnc1C(=O)Nc1ccccn1	-0.3%	-6.0	0.3	-0.1	-13.2	-2.5
CCc1c(C)sc(NC(=O)CN2CCN(C(=O)c3ccco3)CC2)c1C(=O)OC	4.0%	0.8	1.8	17.7	-6.9	-7.9
O=C(Oc1ccc2c(=O)c(Cl)coc2c1)c1ccncc1	0.4%	-0.2	-0.1	-2.4	3.3	17.2
COc1cccc(NC(=O)CN(C)C(=O)c2ccc(OCC3CCCO3)cc2)c1 (stereo not drawn)	-0.9%	-1.3	-0.6	-8.3	-5.6	-0.6
O=C(N/N=C/C(Br)=C/c1ccccc1)c1ccccc1[N+](=O)[O-]	5.8%	-4.4	2.7	-15.1	-92.5*	-21.4
COc1ccc(C2=CC3=C(Br)C(=O)C(C)(O)C(=O)C3=CO2)cc1 (stereo not drawn)	8.0%	1.0	-0.2	5.0	3.6	-13.4
